Rce1 inh: yeast Rce1p protease inhibitors, primary screen, biochemical, fluorescence, cell-free homogeneous. CAAX prenyl protease 2 (Saccharomyces cerevisiae (strain ATCC 204508 / S288c)), Q03530. yeast membranes, quenched prenylated peptide cleavage fluorescence. calls only. actives 0.27% (n = 290,000);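 active = fall in fluorescence gain of 50% or more versus controls, with final raw signal at or below 3038400; inconclusive = same 50% fall but final raw signal above 3038400; inactive = fall in fluorescence gain under 50%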;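 also: plate controls were neutral control wells for no effect and wells lacking membranes for full effect; tested at 10 µM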
Target sequence (Q03530 whole entry, looked up): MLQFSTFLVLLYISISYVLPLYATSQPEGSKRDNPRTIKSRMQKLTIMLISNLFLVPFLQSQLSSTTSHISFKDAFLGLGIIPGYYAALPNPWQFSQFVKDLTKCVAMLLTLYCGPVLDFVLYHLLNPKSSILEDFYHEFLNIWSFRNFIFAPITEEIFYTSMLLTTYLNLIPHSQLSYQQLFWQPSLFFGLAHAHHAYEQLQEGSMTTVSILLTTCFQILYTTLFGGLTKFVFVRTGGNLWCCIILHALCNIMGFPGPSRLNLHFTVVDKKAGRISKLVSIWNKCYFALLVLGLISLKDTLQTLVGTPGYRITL
HIV Env fusion: inhibitors of HIV-1 Env-driven cell-cell fusion, primary screen, HeLa-JRFL effector, CEM21 target cells, luciferase; inhibition, % at 12.3 µM; actives 1.1% (n = 360,000);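 active = mean replicate inhibition score of at least 50 and every replicate individually at or above 50; inconclusive = only one of the two criteria met; inactive = mean below 50 and not all replicates reaching 50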;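 also: 0% = plate neutral controls and 100% = maraviroc near 300 nM; one replicate is shown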
eIF4H FP inh: human eIF4H binding inhibitors, primary screen, translation initiation inhibitor project, biochemical, uHTS, fluorescence polarization; eIF4H fluorescence polarization binding assay; actives 0.94% (n = 290,000); inhibition, % at 35 µM;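 active = 50% or more with normal probe brightness, or confirmed in later tests; inconclusive = above 50% with abnormal brightness, or retests that disagree; inactive = below 50% or failed in later tests; about a fifth of its hits are not listed in these tables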;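 also: calls also rest on retests at 20 µM and on dose response follow-up; 0% = protein and probe with vehicle and 100% = probe without protein; strong numbers were not always called active; many hits fall short of the cut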
CSC inhib: cancer stem cell viability inhibitors, primary screen, luminescence; AID 2717, 2010; inhibition, % at 7.5 µM; actives 1.1% (n = 300,000); cancer stem cell-like cells viability;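 active = mean at 75% or more and at least half the replicates too; inconclusive = mean and replicates disagree; tested in HMLE shEcad cells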;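 also: 0% = median of negative and 100% = median of positive control wells; the first replicate is given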
Yeast UUG start: modulators of yeast start codon fidelity, primary screen, whole organism, S. cerevisiae, single point, plate reader; activity score, % at 18.7 µM; actives 0.13% (n = 350,000); S. cerevisiae UUG-firefly luciferase reporter, luminescence/redox ratio; AID 602363, 2012;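 active = replicate mean at a twofold rise or more, about +100% in these data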;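 also: firefly luciferase made from a UUG start codon reports start codon fidelity; reporter light over untreated wells divided by growth signal over untreated wells; some hits fall short of that in this replicate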
MT1-MMP act inh: blockers of MT1-MMP proenzyme processing, primary screen, HT1080 RFP-PRO-GFP cells, GFP/RFP fluorescence; Matrix metalloproteinase-14 (Homo sapiens), P50281; GFP/RFP ratio fluorescence, overnight; percent of plate control window, DMSO zero; GFP/RFP ratio change, % at 20 µM; actives 0.061% (n = 360,000); AID 651647, 2012;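 active = GFP/RFP ratio change of at least 30% with cell ATP level not reduced by more than half and red fluorescence within 50% of control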; also: strong numbers were not always called active
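Assay system: HT1080 RFP-PRO-GFP cells | Dosing: 20 µM single dose, 1% DMSO | Incubation: Cells overnight before dosing, compound overnight, 37 °C, 5% CO2 | Evaluation: GFP/RFP fluorescence ratio | Control set: DMSO-only wells and HT1080 RFP-L50D-GFP cell wells as references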
PABP FP inh: PABP poly(A) RNA binding inhibitors, primary screen, biochemical, fluorescence polarization, uHTS; Polyadenylate-binding protein 1 (Homo sapiens), P11940; inhibition, % at 35 µM; actives 1% (n = 290,000);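 active = 50% or more with normal probe brightness, or confirmed in later tests; inconclusive = above 50% with abnormal brightness, or retests that disagree; inactive = below 50% or failed in later tests; about a fifth of its hits are not listed in these tables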;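 also: calls also rest on retests at 20 µM and on dose response follow-up; controls were probe without protein and protein plus probe with vehicle; some compounds called inactive have numbers as strong as hits; many hits fall short of the cut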
eIF4H FP inh retest: also measured in eIF4H FP inh; calls as there; inhibition, %; compound at 20 µM; confirmation average;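 mean of two retest wells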
PABP FP inh retest: also measured in PABP FP inh; calls as there; inhibition, %; compound at 20 µM; confirmation repeats;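 mean of two retest wells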
MT1-MMP act inh RFP: second read-out of MT1-MMP act inh, no call of its own (marks repeat the call); RFP signal change, %; measured here: RFP expression control read;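 0 = vehicle wells; hits needed this value within 50% of zero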
Starred values were filed as active, the others as inactive; i = inactive; ? = inconclusive; / = no result given. Only part of the results is shown. The share of hits here may be higher or lower than overall.

SMILES	Rce1 inh	HIV Env fusion	eIF4H FP inh	CSC inhib	Yeast UUG start	MT1-MMP act inh	MT1-MMP act inh RFP	PABP FP inh	others
COc1ccc(/C=N/NC(=O)c2ccncc2)cc1CN1CCN(c2ccc(F)cc2)CC1	i	2	-3	8	-15	3	1	-8
COc1ccccc1NC(=O)N(CCN1CCCC1)Cc1cc2cc(C)ccc2[nH]c1=O	i	-7	/	-4	-5	-1	3	/
Nc1c(C(=O)OCC2CCCO2)c2nc3ccccc3nc2n1C1CCCC1 (stereo not drawn)	i	-34	-8	7	/	-16	-10	-8
Cc1cc2c(nn1)CCc1nonc1-2	i	/	-7	3	-11	0	5	4
O=S(=O)(c1ccccc1)c1ccc(C(F)(F)F)cn1	i	3	6	0	/	-4	-3	-17
Cc1cc([N+](=O)[O-])ccc1Nc1nc2ccccc2n2cnnc12	i	17	-1	-7	-1	6	2	-3
COc1ccccc1NC(=O)C(Sc1ccccc1)c1ccccc1 (stereo not drawn)	i	3	4	23	/	-2	-6	-8
CC1CCN(C(=O)c2[nH]cnc2C(=O)N[C@@H](C)C(=O)OC(C)(C)C)CC1	i	28	-8	-4	13	10	8	21
CC/C(=N\NC(=S)NC(C)C)c1ccc(OC(F)F)cc1	i	-27	5	3	/	-2	-4	-2
CCC(Sc1nc2ccccc2c(=O)n1CCN1CCOCC1)C(=O)NCc1cccnc1 (stereo not drawn)	i	14	2	-8	-7	3	5	5
CN1C(=S)N(c2cccnc2)C(=O)/C1=C\c1ccc(C(C)(C)C)cc1	i	25	-4	60	/	-17	-29	10
Cc1ccc(Nc2ccccc2)cc1	i	-5	2	-8	-11	-3	4	0
CCCn1c(SCC(=O)c2[nH]c(C)c(C(C)=O)c2C)n[nH]c1=O	i	17	8	-15	1	3	3	0
COC(=O)[C@]1(Cc2ccccc2)N[C@H](CN(C)C(=O)NC(C)C)[C@@H]2C(=O)N(Cc3ccccc3)C(=O)[C@@H]21	/	-14	/	-2	5	1	4	/
COc1ccc(NC(=O)c2cc3nc(-c4ccccc4)cc(-c4ccccc4)n3n2)c(OC)c1	i	-6	-5	/	-14	3	12	1
CCn1cc(C(=O)NC(C)C23CC4CC(CC(C4)C2)C3)cn1 (stereo not drawn)	i	19	-5	-3	-11	13	6	1
O=C(CSc1nc2ccccc2c(=O)n1CCCN1CCOCC1)NC12CC3CC(CC(C3)C1)C2	i	26	8	-2	/	-6	-3	1
COc1ccc(S(=O)(=O)NC2CC2)cc1Br	i	20	17	-15	-14	2	-1	7
CCCNC(=O)C1(C)CCN(CCS(=O)(=O)c2ccc(C)cc2)C1 (stereo not drawn)	/	16	/	/	-1	0	1	/
O=C(Cn1nnc(-c2cc(Cl)ccc2-n2cnnn2)n1)N1CCCc2ccccc21	i	/	8	8	-18	0	-1	3
O=C(COC(=O)c1cccs1)Nc1ccc(F)c(F)c1	/	/	/	-15	17	0	4	/
COc1ccc(CN(CC2CCC(C(=O)O)CC2)C(=S)Nc2ccc(C)c(Cl)c2)cc1 (stereo not drawn)	i	15	-2	-3	-31	6	2	15
CC1(C)CC(=O)C2=C(C1)N=C1SCCC(=O)N1C2c1ccccc1 (stereo not drawn)	i	/	0	0	-19	5	2	-8
O=c1[nH]c(C2CCN(S(=O)(=O)c3ccc([N+](=O)[O-])cc3)CC2)nc2c1nnn2Cc1ccccc1	i	-5	-4	/	-5	4	0	2
CCCNC(=O)C1CCN(S(=O)(=O)c2ccc3c(c2)OCCO3)CC1	i	-3	/	-6	-13	5	1	/

Among those listed so far, 2 have a nitro group on carbon.
SMILES	Rce1 inh	HIV Env fusion	eIF4H FP inh	CSC inhib	Yeast UUG start	MT1-MMP act inh	MT1-MMP act inh RFP	PABP FP inh	others
Cc1cc([N+](=O)[O-])ccc1Nc1nc2ccccc2n2cnnc12	i	17	-1	-7	-1	6	2	-3
O=c1[nH]c(C2CCN(S(=O)(=O)c3ccc([N+](=O)[O-])cc3)CC2)nc2c1nnn2Cc1ccccc1	i	-5	-4	/	-5	4	0	2

Later entries
SMILES	Rce1 inh	HIV Env fusion	eIF4H FP inh	CSC inhib	Yeast UUG start	MT1-MMP act inh	MT1-MMP act inh RFP	PABP FP inh	others
C=CCn1c(C)cc(C(=O)COC(=O)CNC(=O)c2ccccc2)c1C	i	10	8	3	/	-3	-1	53	eIF4H FP inh retest=-4;PABP FP inh retest=7
O=C(NCc1ccncc1)C1CCN(S(=O)(=O)c2ccc(F)cc2)CC1	i	-12	-10	-1	-15	1	6	11
O=C(CSc1ccc2nnc(-c3cccnc3)n2n1)Nc1ccccc1C(F)(F)F	i	-295	-4	-2	-16	1	4	-1
Cc1ccc(C)c(S(=O)(=O)N2CCCCC2CCNC(=O)C(=O)NCCc2ccco2)c1 (stereo not drawn)	i	-2	/	-8	-8	-2	-9	/
CCOC(=O)c1[nH]c2ccc(OC)cc2c1NC(=S)N1CCN(C(=O)OCC)CC1	i	3	8	-16	/	0	3	17
CN(C)N=Nc1nc2c(c(=O)n(C)c(=O)n2C)n1CC1CO1 (stereo not drawn)	i	0	-9	1	-1	-18	-5	3
COC(=O)C1=C(C)Nc2c(c(=O)n(C)c(=O)n2C)C1c1cccs1 (stereo not drawn)	/	/	-4	-6	-18	6	5	6
O=C(NC1CCCC1)C(NS(=O)(=O)c1ccc(Br)s1)c1ccccc1 (stereo not drawn)	i	-19	-2	-13	-24	-9	-3	-2
CC(=O)Nc1cccc(-c2cn3ccc(C)cc3n2)c1	/	-39	-4	2	/	9	6	-3
CC(Sc1ccccc1)C(=O)NCC1COc2ccccc2O1 (stereo not drawn)	i	/	/	5	-9	-1	2	/
O=C(NCCN1CCOCC1)C1CCC(CNS(=O)(=O)c2ccccc2)CC1 (stereo not drawn)	i	-17	0	-1	-7	1	5	5
CC1(C)Cc2c(cnn2-c2ccc(F)cc2)C(NC(=O)C2=CC(=O)CC(C)(C)O2)C1 (stereo not drawn)	/	17	/	/	-7	0	0	/
CN(C)C(CNC(=S)Nc1ccc(Cl)cc1)c1cccnc1 (stereo not drawn)	i	14	-2	-11	/	1	5	-10
O=C(Nc1nnc(-c2ccc(Br)cc2)o1)c1cccc(N2C(=O)CCC2=O)c1	i	-2	/	14	0	3	2	/
CC(=O)c1ccc(N2CCN(C(=O)c3cc(-c4ccc5c(c4)OCO5)nc4ccccc34)CC2)cc1	i	/	-2	19	-20	-5	-7	10
CN(Cc1c(F)cccc1Cl)C(=O)c1ccc2ccccc2n1	i	26	85	-11	-4	3	3	8	eIF4H FP inh retest=3;PABP FP inh retest=2
CC1(C(=O)NCc2ccccc2Br)CCN1Cc1csc2ccccc12 (stereo not drawn)	/	34	/	/	13	-8	-10	/
CCCCOC(=O)Cc1c(O)c2ccccc2[nH]c1=O	i	/	-4	-15	6	1	2	0
O=C(c1ccc(C(F)(F)F)cc1)N(CCCn1ccnc1)C(c1ccccn1)c1nc2ccccc2[nH]1 (stereo not drawn)	/	65*	/	/	-25	6	6	/
NC(=O)c1ccccc1NC(=O)Nc1ccc(F)c(Cl)c1	i	15	5	11	/	-7	-3	1
Cc1ccc(CSc2nnc(C)c(=O)n2N)cc1	i	/	-10	-1	-6	2	2	6
O=C(COC(=O)c1ccc(O)cc1O)NC(=O)c1ccccc1	/	-3	/	/	-11	3	-1	/
Nc1cc[n+](CC(=O)c2ccc3c(c2)OCCO3)cc1	/	28	1	-6	-19	3	-18	-6
N#CCCN(Cc1cccnc1)S(=O)(=O)c1ccc2ccccc2c1	/	/	/	-6	-2	0	-3	/
COc1ccc(NC(=O)c2cc3c(=O)n4ccccc4nc3n2C)c(OC)c1	i	18	12	7	-9	-2	-3	-4
The list continues:
SMILES	Rce1 inh	HIV Env fusion	eIF4H FP inh	CSC inhib	Yeast UUG start	MT1-MMP act inh	MT1-MMP act inh RFP	PABP FP inh	others
O=C(CSc1nc2c(c(=O)n1-c1ccccc1)SCC2)N1CCOCC1	i	-42	0	2	-6	5	9	10
Cc1c(Cl)cccc1NC(=O)CN1CCN(CCN=CC2=C(O)CC(c3ccccc3)CC2=O)CC1 (stereo not drawn)	i	11	-9	/	/	2	2	4
O=C(NNc1c(Cl)cccc1Cl)c1ccno1	i	2	-2	-8	-26	2	2	0
COc1ccc(S(=O)(=O)N2CCCCC2)cc1C(=O)N1CCCC1	i	-6	-14	-14	-4	-1	1	-10
COc1ccc(N2C(=O)CC(C3CCCO3)C2=O)cc1 (stereo not drawn)	i	8	-1	3	/	2	7	-2
Cc1cccc(NCc2nc(SCC(=O)Nc3ccccc3)n[nH]2)c1	i	0	12	2	-8	5	3	-1
Cc1cccc(-n2ccnc2SCC(=O)Nc2cccc(S(=O)(=O)NC3=NCCC3)c2)c1C	/	4	/	/	0	1	-9	/
CCOC(=O)N1C=CC(C)=C[C@@H]2[C@@H](N3C(=O)c4ccccc4C3=O)C(=O)N21	i	/	3	-9	/	-2	1	-8
Cc1cccc(NC(=O)C2CCN(c3nc(C)cc(C)n3)CC2)c1	i	-67	-7	-6	-18	-2	0	-3
O=C1NC(=S)N/C1=C\c1cccnc1	i	33	-4	-11	-19	-8	-9	-4
COc1cccc(CNc2nnnn2C)c1OC	i	8	12	-16	-16	5	1	11
Cc1cccc(C(=O)Nc2cccc(NC(=O)c3ccccc3)c2)c1	i	26	-8	-2	0	1	4	8
Cc1ccc(NC(=O)/C(C#N)=C/c2cc(C)n(-c3ccc(N4CCOCC4)c([N+](=O)[O-])c3)c2C)c(C)c1	i	/	12	-23	-9	3	-8	9
CC(N)c1ccc(Cl)cc1Cl (stereo not drawn)	i	0	-14	-2	/	3	2	-1
CCCn1ncc(OC)c(Cl)c1=O	i	-31	-7	-16	/	-3	2	2
Nc1c2c(nc3ccc(Br)cc13)N(Cc1ccccc1)CC2	i	27	-4	5	/	-7	-2	-1
CCN(C(=O)CSc1nnc(Nc2cccc(C)c2C)s1)C1CCS(=O)(=O)C1 (stereo not drawn)	i	2	1	-7	-10	4	4	12
CN(C)C(=O)c1nc2ccc(Cl)cn2c1CN1CCCC(OCc2ccccc2)C1 (stereo not drawn)	i	19	32	4	7	-3	0	14
Cc1ccc(N=Cc2cc(Cc3ccccc3Cl)cc([N+](=O)[O-])c2O)c(O)c1	i	/	21	70	/	-1	0	14
O=C(OCc1nnc(-c2ccccc2)o1)c1ccc(-n2cnnn2)cc1	i	-18	/	6	-17	0	1	/
COc1ccc(C(=O)O/N=C/c2ccc(S(=O)(=O)c3ccc(Cl)cc3)nc2)cc1	i	10	/	10	-6	-3	1	/
COc1cc(OC)cc(C(=O)Nc2nnc(Cc3ccc(OC)c(OC)c3)s2)c1	i	-8	0	42	-6	2	3	-3
COc1ccccc1NC(=O)c1ccc(S(=O)(=O)N2CCCC(C)C2)cc1 (stereo not drawn)	i	8	-5	?	-1	2	-3	7
CCOc1cc(N2CCOCC2)c(OCC)cc1NC(=O)CSc1n[nH]c(N)n1	i	-3	-1	-7	/	3	5	16
N#Cc1c(SCC(N)=O)nc(-c2ccccc2)c2c1CCCC2	i	/	-9	/	-13	-1	-3	-20
